2A Renilla: lowers the Renilla signal of an FMDV 2A StopGo reporter | HEK cells with a luciferase reporter of 2A StopGo recoding | Potency, µM (top dose mostly 57.5 µM), without a hit: at the top dose signal change, negative = less light | 120,000 compounds, 0.32% hits | AID 1745857; active means well fitted falling curve with a large enough effect; inconclusive means small, poorly fitted or top-dose-only effect; inactive means no such curve, though single readings can be large or run the other way; further: nearly all actives have a fitted effect of over 55% in size; overnight with compound
2A firefly: lowers the firefly signal of an FMDV 2A StopGo reporter; HEK cells with a luciferase reporter of 2A StopGo recoding; Potency, µM (titrated, usually from 57.5 µM), without a hit: at the top dose signal change, negative = less light; 120,000 compounds, 0.23% hits; AID 1745856; active = well fitted falling curve with a large enough effect; inconclusive = small, poorly fitted or top-dose-only effect; inactive = no such curve, though single readings can be large or run the other way; further: nearly all actives have a fitted effect of over 60% in size; overnight with compound
* = called active by the depositor; ? = inconclusive; [ ] = dose if it differs, or a comment. On the % scale 0 is the no-effect control and ±100 the full control effect; potency means the concentration at half of the fitted maximal effect.

SMILES	2A Renilla	2A firefly
O=[N+]([O-])c1c(Nc2cccc(Cl)c2Cl)cc(Cl)c2nonc12	?	?
O=C(Nc1nn[nH]n1)c1ccc(Cl)c(S(=O)(=O)N2CCOCC2)c1	5%	0%
O=c1[nH]sc2cc(Cl)ccc12	-22%	-4%[11.5 µM]
CCCCCCCCCc1ccc(C(=O)O)cc1	-14%[1.06 µM]	?
CCOc1ccc(NS(=O)(=O)c2ccc(C(=O)N(C)C)s2)cc1	-24%	0%
O=C(O)c1ccc(C(=O)O)s1	0%	0%
COC(=O)c1c(NC(=O)/C=C/c2ccc(OC)c(OC)c2)sc2c1CCC2	-4%	0%
Cn1nc(C(=O)N2CCN(C(c3ccccc3)c3ccccc3)CC2)c2ccccc2c1=O	-14%	-23%
CCCCn1c(=O)[nH]c(=O)c2c1nc(CSc1nnnn1-c1ccc(C)cc1C)n2CCC	34%	0%
Nc1nccnc1C(=O)NCCc1c[nH]c2ccccc12	-17%	0%
CC(=O)Nc1ccc2oc(-c3cc(C)cc(C)c3)nc2c1	13%	227%[activator]
CCn1ccc2cc(S(=O)(=O)N3CCC(C(=O)NCCc4ccccc4)CC3)ccc21	-6%	-20%
CCN(CC)CCNC(=O)c1sc2ncccc2c1-n1cccc1	-19%	-15%
O=C(Nc1ccc2oc(C3CC3)nc2c1)c1ccc[nH]c1=O	-4%	176%[activator]
CCOc1ccccc1N1CCN(CC(=O)Nc2c(C)cc(C)cc2Cl)CC1	2%	9%
COC(=O)c1cc(-c2ccc(Cl)cc2)on1	1%	0%
COC(=O)C1=C(C)Nc2nc3ccccc3n2C1c1cc(OC)c(O)c(OC)c1 (stereo not given)	33%[activator]	35%[activator]
Cc1nn(CC(O)COc2ccc(Oc3ccccc3)cc2)c(=O)c2ccccc12 (stereo not given)	-12%	-14%
N#Cc1cccc(NC(=O)Cn2nc(Cc3ccncc3)c3ccccc3c2=O)c1	-12%	-10%
C/C(Cc1ccccc1)=N\NC(=O)C(C)C	9%	0%
O=[N+]([O-])c1cc(-c2nc(-c3ccccc3)no2)ccc1NC1CCCCC1	-3%	15%
COc1cccc(C2CC(=O)Nc3c2c(=O)[nH]c2ncnn32)c1OC (stereo not given)	-5%	-7%
CCOc1ccc(NC(=O)c2cnn(-c3ccc(C)c(Cl)c3)c2C2CCNCC2)cc1	-23%	-23%
Cc1ccc(/C=C2\Cc3ccccc3C2=O)cc1	0%	180%[activator]
Cc1ccc(NC(=O)C2CCCN(c3nnc(C)c4c(C)n(-c5ccccc5)nc34)C2)c(Cl)c1 (stereo not given)	45%[activator]	20%
CCCCn1c(=O)[nH]c(=O)c2c1nc(-c1ccncc1)n2C1CCCC1	-12%	-11%
FC(F)(F)c1cnc(SCc2cn3ccsc3n2)c(Cl)c1	-17%	61%[activator]
Cc1nc(SCC(=O)c2cc(C)n(C3CC3)c2C)c2ccccc2n1	?	0%
Cc1nc2ccc(S(=O)(=O)N(CC(=O)Nc3cccc(F)c3)Cc3ccccc3)cc2s1	33%[activator]	-16%
CCOC(=O)c1[nH]c2ccccc2c1NC(=O)c1ccc(OC(C)C)cc1	12%	37%[activator]
Cc1ccc(-c2cc(C(=O)NC(C)C3CC3)c3ccccc3n2)o1 (stereo not given)	0%	38%[activator]
CSc1ccc(CCNC(=O)c2ccc3c(c2)nc2n3CCOC2)cc1	-13%	28%
Cc1ccccc1Cn1c(=O)n(-c2ccc(Cl)cc2)c(=O)c2c3c(sc21)CCCC3	-5%	-10%
Cc1c(C)n(Cc2ccc(F)cc2)c2ccc(C(=O)NCc3ccco3)cc12	9%	38%[activator]
O=C(COc1ccc(F)cc1)Nc1cccc(OCc2cc(=O)n3ccccc3n2)c1	1%	11%
CCCCCN1CCN(c2nc3c(c(=O)[nH]c(=O)n3C)n2CCCc2ccccc2)CC1	2%	5%
Cc1oc2cc(OCC(=O)N3CCN(C)CC3)ccc2c(=O)c1Oc1ccccc1	-3%	2%
COc1cc(C(c2c(O)c3ccccc3oc2=O)c2c(C)n(C)n(-c3ccccc3)c2=O)ccc1O (stereo not given)	11%	-12%
O=C(Nc1ccc2cc[nH]c2c1)C(=O)NC1CCCCC1	-8%	140%[activator]
Cc1ccc(-n2c(=O)c3c(c4cc(C)ccc4n3C)n(CC(=O)NCc3ccccc3Cl)c2=O)cc1	-9%	-19%

Part of the list above in order of SMILES length, ascending.
SMILES	2A Renilla	2A firefly
C/C(Cc1ccccc1)=N\NC(=O)C(C)C	9%	0%
Cc1ccc(/C=C2\Cc3ccccc3C2=O)cc1	0%	180%[activator]
O=C(Nc1ccc2cc[nH]c2c1)C(=O)NC1CCCCC1	-8%	140%[activator]
CSc1ccc(CCNC(=O)c2ccc3c(c2)nc2n3CCOC2)cc1	-13%	28%
Cc1ccc(-c2cc(C(=O)NC(C)C3CC3)c3ccccc3n2)o1 (stereo not given)	0%	38%[activator]
COc1cccc(C2CC(=O)Nc3c2c(=O)[nH]c2ncnn32)c1OC (stereo not given)	-5%	-7%
CCCCn1c(=O)[nH]c(=O)c2c1nc(-c1ccncc1)n2C1CCCC1	-12%	-11%
Cc1c(C)n(Cc2ccc(F)cc2)c2ccc(C(=O)NCc3ccco3)cc12	9%	38%[activator]
Cc1oc2cc(OCC(=O)N3CCN(C)CC3)ccc2c(=O)c1Oc1ccccc1	-3%	2%
O=C(COc1ccc(F)cc1)Nc1cccc(OCc2cc(=O)n3ccccc3n2)c1	1%	11%
O=[N+]([O-])c1cc(-c2nc(-c3ccccc3)no2)ccc1NC1CCCCC1	-3%	15%
CCOc1ccc(NC(=O)c2cnn(-c3ccc(C)c(Cl)c3)c2C2CCNCC2)cc1	-23%	-23%
CCCCCN1CCN(c2nc3c(c(=O)[nH]c(=O)n3C)n2CCCc2ccccc2)CC1	2%	5%
Cc1ccccc1Cn1c(=O)n(-c2ccc(Cl)cc2)c(=O)c2c3c(sc21)CCCC3	-5%	-10%
Cc1nc2ccc(S(=O)(=O)N(CC(=O)Nc3cccc(F)c3)Cc3ccccc3)cc2s1	33%[activator]	-16%
Cc1ccc(NC(=O)C2CCCN(c3nnc(C)c4c(C)n(-c5ccccc5)nc34)C2)c(Cl)c1 (stereo not given)	45%[activator]	20%
Cc1ccc(-n2c(=O)c3c(c4cc(C)ccc4n3C)n(CC(=O)NCc3ccccc3Cl)c2=O)cc1	-9%	-19%

The listing continues.
SMILES	2A Renilla	2A firefly
Cc1cc(C)cc(C(=O)NCC(C)C)c1	1%	18%
COc1ccc(NC(=O)CSc2nnc(-n3nc(C)cc3C)n2N)cc1Cl	8%	19%
O=C(CN1CCN(C(=O)CCc2ncc(-c3ccc(F)cc3)o2)CC1)Nc1ccccc1Cl	-7%	37%[activator]
Cc1cc(C)c2c(c1)NC(=O)C2(O)c1c[nH]c2ccccc12 (stereo not given)	-6%	-22%
Cc1ccc(NC(=O)C2CCC(C)CC2)cc1 (stereo not given)	17%	102%[activator]
O=C(Cn1c(=O)n(-c2ccccc2)c(=O)c2ccc(C(=O)NCc3ccc4c(c3)OCO4)cc21)Nc1ccc(Br)cc1F	19%	6%
CC(=O)Nc1ccc(Nc2nnc(-c3ccc(C)c(S(N)(=O)=O)c3)c3ccccc23)cc1	-7%	-23%
CCCCN(CCCC)CC(C)(C)NS(=O)(=O)c1ccccc1	-4%	-8%
COC(=O)c1cc(-c2c(C)oc3cc(OC)ccc3c2=O)c(C)o1	-2%	-1%
Cc1c(C(=O)O)cccc1-n1cccc1	5%	13%
N#Cc1ccc(COC(=O)c2cc(-c3ccccc3)c(N3CCOCC3)s2)cc1	13%	19%
Cc1nc(-c2ccc(C)c(S(=O)(=O)N3CCCC3)c2)cs1	30%[activator]	-27%
CC(O)CNc1ccc(-c2n[nH]c(=O)c3ccccc23)cc1[N+](=O)[O-] (stereo not given)	7%	23%
CC(NC(=O)c1ccc[n+]([O-])c1)c1cccc2ccccc12 (stereo not given)	10%	0%
CC(=O)c1ccc(OCC(O)CN2CCCC(C(F)(F)F)C2)cc1 (stereo not given)	1%	14%
COc1ccccc1C(C)NC(=O)Cn1c(=O)c2c(ncn2C)n(C)c1=O (stereo not given)	8%	13%
CCOc1cccc2cc(-c3nc(-c4ccc(F)cc4)no3)c(=O)oc12	-2%	-4%
O=C(Nc1ccccn1)C1CC(=O)N(c2ccc3c(c2)OCO3)C1 (stereo not given)	0%	1%
O=C(Nc1cccc2ncccc12)C1CCCCC1	11%	-4%
O=C(NCCC1=CCCCC1)C12CC3CC(CC(Cl)(C3)C1)C2	9%	35%[activator]
Cc1ccccc1Nc1sc(C(=O)c2ccc(F)cc2)c(N)c1C(=O)NCCc1ccccc1	-16%	48%[activator]
COC(=O)c1c(NC(=O)c2ccc(S(=O)(=O)N(C)C3CCCCC3)cc2)sc2c1CCN(C)C2	-20%	-21%
Cc1cc(N/N=C/c2c(O)ccc3ccccc23)nc(NCc2ccccc2)n1	?	10%
O=C(/C=C/c1ccccc1)c1ccc2cccc3c2c1CC3	-3%	87%[activator]
CN1CCN(C(=O)COc2ccc3c(=O)c(-c4ccccc4)coc3c2)CC1	9%	94%[activator]
Cc1ccc(N2CCN(C(=O)Cn3ncc4c([nH]c5ccc(C)cc54)c3=O)CC2)c(C)c1	-9%	-12%
C=C(C)CSc1nc2sc3c(c2c(=O)n1-c1ccccc1)CCC(C)C3 (stereo not given)	-6%	-12%
COc1ccc(-c2c(C)oc3cc(OCCN4CCC(C)CC4)ccc3c2=O)cc1OC	-8%	-1%
Cc1ccc2nc(NCc3ccccc3Cl)c3nnnn3c2c1	-4%	4%
CCOC(=O)CC(N)c1cc(OC)cc(OC)c1 (stereo not given)	7%	2%
CCCN(CCC)S(=O)(=O)N1CC=C(c2c(OC)cc(OC)cc2OC)CC1	?	?
O=C(Cn1ccn(-c2cccc(Cl)c2)c(=O)c1=O)c1ccc(F)cc1	2%	-17%
O=C(NCc1ccc(F)cc1)c1ccc[n+]([O-])c1	-8%	-6%
Cc1cccc(NC(=O)C2CCCN(S(=O)(=O)c3cccc4nonc34)C2)c1 (stereo not given)	-4%	10%
COc1ccc(CNC(=O)c2ccc3c(c2)N(Cc2ccccc2)CCS3)cc1	109%[activator]	-9%
CCC(CC)C(=O)Nc1sc2c(c1C#N)CCC(C)C2 (stereo not given)	-5%[1.06 µM]	40%[activator]
COc1ccc(CCN2CN=C(NS(=O)(=O)c3ccc(F)cc3)NC2)cc1	-19%	-25%
CC(C)(C)NCC(O)c1ccccc1Cl (stereo not given)	-11%	-14%
CCc1ccc(C2=CC(c3cccc(OC)c3OC)n3c(nc4ccccc43)N2)cc1 (stereo not given)	-7%	19%
Cc1cccc(CCNC(=O)c2sc3nc4n(c(=O)c3c2C)CCCC4)c1	-4%	129%[activator]
Cc1ccccc1NC(=O)CCc1c(C)nn(-c2ccc(N3CCCCC3)nn2)c1C	-5%	10%
Cc1cc(C)cc(NC(=O)CC2CC3CCC2C3)c1 (stereo not given)	12%	74%[activator]
CNC(=O)NC(=O)Cn1c(=O)c2c(ncn2CCC(C)C)n(Cc2ccccc2)c1=O	-10%	-11%
CCOc1ccc(NC(=O)CSC2=Nc3ccccc3C3=NC(CC(=O)NCc4cccs4)C(=O)N23)cc1 (stereo not given)	-13%	-26%
CCOc1ccc(NC(=O)CC(C)O)cc1 (stereo not given)	-12%	-13%
COc1ccc(NC(=O)CCCS(=O)(=O)c2nc(-c3ccccc3OC)cc(C(F)(F)F)n2)c(OC)c1	-9%	10%
CCN(CC)S(=O)(=O)c1cc(NS(=O)(=O)c2ccc3ccccc3c2)ccc1C	0%	?
COc1ccc(-c2[nH]c(-c3ccccc3)nc2SCC(=O)NC2CCCC2)cc1	79%[activator]	-3%
COc1ccccc1CN1C(=O)CN(C2CCCCCC2)C(=O)C1c1ccc(F)cc1 (stereo not given)	18%	-23%
COC(=O)c1scc(-c2ccc(C)cc2)c1S(=O)(=O)N1CCN(c2cccc(Cl)c2)CC1	33%[activator]	-11%
COc1cccc(CNC(=O)CCc2nc(-c3ccc(C)cc3)no2)c1	-1%	-1%
CCOc1ccccc1NC(=O)Cn1c(=O)n(-c2ccccc2)c(=O)c2c1c1cc(C)ccc1n2C	3%	2%
C[C@]12C=CC(=O)C=C1[C@@H](F)C[C@@H]1[C@@H]2[C@@H](O)C[C@@]2(C)[C@H]1CC[C@]2(O)C(=O)CO	9%	-6%
COCCCN1CCC(NC(=O)c2cc(Cl)c(N)c3c2OCC3)CC1	-9%	-17%
Cc1ccc(N2C(=O)NC(NS(=O)(=O)c3ccc(Cl)cc3)(C(F)(F)F)C2=O)cc1C (stereo not given)	-8%	-9%
Fc1ccc(-c2[nH]ncc2CNCc2cccs2)cc1	-14%	-6%
COCCn1c(SCC(=O)Nc2ccc(C)cc2Br)nc2ccsc2c1=O	-8%	16%
COc1ccc(C(=O)/C=C/c2ccc(C#N)cc2)cc1F	55%[activator]	0%
Cc1ccc(C(=O)c2cn(Cc3ccccc3)c3nc(C)ccc3c2=O)cc1	13%	12%
CN(C)C(=O)CN1CCCC1c1ccc2c(c1)OCCO2 (stereo not given)	4%	14%

Other compounds.
SMILES	2A Renilla	2A firefly
Cn1c(=O)c2c(nc(CN3CCN(Cc4ccccc4)CC3)n2Cc2ccc(F)cc2)n(C)c1=O	-11%	-16%
COc1ccccc1NC(c1ccc(Cl)cc1)c1nnc(-c2cccc(F)c2)o1 (stereo not given)	42%[activator]	2%
CCOc1ccc(C(=O)OCC(=O)NCC(F)(F)F)cc1	1%	0%
CCCN(Cc1ccccc1)C(=O)c1cc2ccccc2oc1=O	107%[activator]	6%
O=C(CSc1c2c(nc3ccc(Cl)cc13)CCCC2)Nc1nc2ccccc2s1	33%[activator]	38%[activator]

High-throughput results: PubChem BioAssay, National Center for Advancing Translational Sciences (NCATS)
